CSC inhib – cancer stem cell inhibition; AID 2717; 1.1% of 300,000 active; cancer stem cell-like cells viability, luminescence; inhibition, % at 7.5 µM;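 active = mean at 75% or more and at least half the replicates too; inconclusive = mean and replicates disagree; tested in HMLE shEcad cells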;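 also: 0% = median of negative and 100% = median of positive control wells; the first replicate is given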
Yeast UUG start – modulators of start codon recognition fidelity in yeast; S. cerevisiae UUG-firefly luciferase reporter, luminescence/redox ratio; activity score, % at 18.7 µM; 0.13% of 350,000 active; AID 602363;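 active = replicate mean at a twofold rise or more, about +100% in these data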;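 also: firefly luciferase made from a UUG start codon reports start codon fidelity; reporter light over untreated wells divided by growth signal over untreated wells; some hits fall short of that in this replicate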
Rce1 inhib – inhibitors of yeast Ras-converting enzyme | Q03530 | AID 2563 | yeast membranes, quenched prenylated peptide cleavage fluorescence | 0.27% of 290,000 active | calls only;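 active = fall in fluorescence gain of 50% or more versus controls, with final raw signal at or below 3038400; inconclusive = same 50% fall but final raw signal above 3038400; inactive = fall in fluorescence gain under 50%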;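 also: plate controls were neutral control wells for no effect and wells lacking membranes for full effect; tested at 10 µM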
Target sequence (Q03530 whole entry, looked up): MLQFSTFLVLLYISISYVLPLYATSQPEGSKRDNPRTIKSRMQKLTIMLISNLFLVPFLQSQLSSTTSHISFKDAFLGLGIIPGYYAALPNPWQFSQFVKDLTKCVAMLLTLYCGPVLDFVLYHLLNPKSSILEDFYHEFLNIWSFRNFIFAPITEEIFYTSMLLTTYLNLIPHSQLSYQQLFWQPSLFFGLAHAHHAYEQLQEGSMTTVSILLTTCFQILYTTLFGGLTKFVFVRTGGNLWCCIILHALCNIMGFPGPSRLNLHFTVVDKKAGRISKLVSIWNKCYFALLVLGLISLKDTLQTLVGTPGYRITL
eIF4H FP inh – inhibitors of RNA binding by human eIF4H | 0.94% of 290,000 active | AID 2012 | Q15056 | eIF4H fluorescence polarization binding assay | inhibition, % at 35 µM;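 active = 50% or more with normal probe brightness, or confirmed in later tests; inconclusive = above 50% with abnormal brightness, or retests that disagree; inactive = below 50% or failed in later tests; about a fifth of its hits are not listed in these tables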;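 also: calls also rest on retests at 20 µM and on dose response follow-up; 0% = protein and probe with vehicle and 100% = probe without protein; strong numbers were not always called active; many hits fall short of the cut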
HIV Env fusion – HIV envelope-mediated fusion inhibition. HeLa-JRFL Env/CEM21 cell fusion, luciferase. inhibition, % at 12.3 µM. 1.1% of 360,000 active. AID 651610;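 active = mean replicate inhibition score of at least 50 and every replicate individually at or above 50; inconclusive = only one of the two criteria met; inactive = mean below 50 and not all replicates reaching 50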;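 also: 0% = plate neutral controls and 100% = maraviroc near 300 nM; one replicate is shown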
MT1-MMP act inh – blocks activation of human MT1-MMP | HT1080 RFP-PRO-GFP cells, GFP/RFP ratio fluorescence, overnight; percent of plate control window, DMSO zero | GFP/RFP ratio change, % at 20 µM | 0.061% of 360,000 active | AID 651647;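 active = GFP/RFP ratio change of at least 30% with cell ATP level not reduced by more than half and red fluorescence within 50% of control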; also: strong numbers were not always called active
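Assay system: HT1080 RFP-PRO-GFP cells | Dosing: 20 µM single dose, 1% DMSO | Incubation: Cells overnight before dosing, compound overnight, 37 °C, 5% CO2 | Evaluation: GFP/RFP fluorescence ratio | Control set: DMSO-only wells and HT1080 RFP-L50D-GFP cell wells as references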
PABP FP inh – blocks human PABP binding to poly(A) RNA; AID 2014; P11940; fluorescence polarization; inhibition, % at 35 µM; 1% of 290,000 active;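 active = 50% or more with normal probe brightness, or confirmed in later tests; inconclusive = above 50% with abnormal brightness, or retests that disagree; inactive = below 50% or failed in later tests; about a fifth of its hits are not listed in these tables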;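 also: calls also rest on retests at 20 µM and on dose response follow-up; controls were probe without protein and protein plus probe with vehicle; some compounds called inactive have numbers as strong as hits; many hits fall short of the cut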
Target sequence (P11940 whole entry, looked up): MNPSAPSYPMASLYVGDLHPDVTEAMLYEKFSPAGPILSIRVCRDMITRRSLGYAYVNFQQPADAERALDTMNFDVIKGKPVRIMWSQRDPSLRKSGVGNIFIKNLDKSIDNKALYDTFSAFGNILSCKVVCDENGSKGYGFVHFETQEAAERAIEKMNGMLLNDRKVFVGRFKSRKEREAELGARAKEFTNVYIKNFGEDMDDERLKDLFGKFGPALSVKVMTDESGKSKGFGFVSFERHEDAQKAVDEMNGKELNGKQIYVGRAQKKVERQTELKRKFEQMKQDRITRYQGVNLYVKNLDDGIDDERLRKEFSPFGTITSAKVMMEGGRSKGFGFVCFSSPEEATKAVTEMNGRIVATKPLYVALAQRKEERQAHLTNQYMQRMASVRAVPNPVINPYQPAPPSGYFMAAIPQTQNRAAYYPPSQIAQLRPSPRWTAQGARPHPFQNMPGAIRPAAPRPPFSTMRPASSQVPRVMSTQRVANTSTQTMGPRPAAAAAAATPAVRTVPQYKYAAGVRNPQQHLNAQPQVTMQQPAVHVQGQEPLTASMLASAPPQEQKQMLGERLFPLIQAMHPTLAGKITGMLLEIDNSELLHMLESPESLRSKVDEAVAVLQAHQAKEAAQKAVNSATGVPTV
MT1-MMP act inh RFP – second read-out of MT1-MMP act inh, no call of its own (marks repeat the call); RFP signal change, %; measured here: RFP expression control read;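 0 = vehicle wells; hits needed this value within 50% of zero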
Starred values were filed as active, the others as inactive.

`CCCC(=O)NCc1nc2ccccc2n1C` gave CSC inhib -16.8, Yeast UUG start -7.9, Rce1 inhib inactive, eIF4H FP inh 7.2, MT1-MMP act inh 0.1, PABP FP inh -7.4 and MT1-MMP act inh RFP -1.0.
`Cn1c(=O)c2c(nc(NCc3cccnc3)n2Cc2cccc(C(F)(F)F)c2)n(C)c1=O` gave CSC inhib 13.8, Yeast UUG start -13.8, Rce1 inhib inactive, eIF4H FP inh -3.9, MT1-MMP act inh -10.5, PABP FP inh -9.6 and MT1-MMP act inh RFP -1.2.
`COc1cccc(OC)c1OCc1cc(C2C3CCCC=C3C(C#N)=C(N)C2(C#N)C#N)c(C)cc1C` (configuration not stated) gave CSC inhib 2.7, Yeast UUG start 18.3, Rce1 inhib inactive, eIF4H FP inh 21.2, HIV Env fusion -63.9, MT1-MMP act inh -32.4, PABP FP inh 37.5 and MT1-MMP act inh RFP -0.9.
`O=[N+]([O-])c1cccc2c(Cl)ccnc12` gave CSC inhib -13.4, Rce1 inhib inactive, eIF4H FP inh 2.1, HIV Env fusion -3.6, MT1-MMP act inh -0.4, PABP FP inh 1.4 and MT1-MMP act inh RFP -3.6.
`Cc1nc(C)c(CCNC(=O)c2ccc(C(F)(F)F)cc2)s1` gave Yeast UUG start -7.1, Rce1 inhib inactive, eIF4H FP inh -7.7, HIV Env fusion -14.8, MT1-MMP act inh -1.0, PABP FP inh -16.4 and MT1-MMP act inh RFP -4.2.
Screening Clc1cccc(Cl)c1CSc1nnc(CN2CCOCC2)n1-c1ccccc1 returned CSC inhib 8.3, Yeast UUG start -20.4, Rce1 inhib inactive, eIF4H FP inh -8.8, MT1-MMP act inh 1.1, PABP FP inh 1.8 and MT1-MMP act inh RFP -3.5.
Cc1cnc(NC(=O)c2cc(S(=O)(=O)N(C)C)ccc2N2CCCC2)s1 was read as CSC inhib 51.4, Yeast UUG start -22.5, HIV Env fusion inconclusive, MT1-MMP act inh -4.0 and MT1-MMP act inh RFP -9.0.
Screening Clc1ccc(OCCCCCN2CCOCC2)cc1 returned CSC inhib -10.1, Yeast UUG start -16.0, Rce1 inhib inactive, eIF4H FP inh 1.1, HIV Env fusion 5.1, MT1-MMP act inh -0.7, PABP FP inh -4.9 and MT1-MMP act inh RFP -0.2.
CCC(NC(=O)Cc1cccs1)c1ccccc1 (configuration not stated) was read as CSC inhib -13.3, Yeast UUG start -12.0, Rce1 inhib inactive, eIF4H FP inh 5.0, HIV Env fusion -2.8, MT1-MMP act inh 1.4, PABP FP inh -10.8 and MT1-MMP act inh RFP 0.7.
Screening CCOC(=O)c1c(N)sc(C(O)(C(F)(F)F)C(F)(F)F)c1-c1ccccc1 returned CSC inhib -0.4, Yeast UUG start -8.2, Rce1 inhib inactive, eIF4H FP inh -7.7, HIV Env fusion -16.2, MT1-MMP act inh -0.6, PABP FP inh -1.9 and MT1-MMP act inh RFP 1.5.
Screening Cc1cccc(NC(=S)N(CCN(C)C)Cc2cccs2)c1 returned CSC inhib -2.9, Yeast UUG start 8.4, Rce1 inhib inactive, eIF4H FP inh -1.3, HIV Env fusion 16.1, MT1-MMP act inh -1.8, PABP FP inh 12.7 and MT1-MMP act inh RFP -1.3.
Screening CN=C1NN=C(c2cc(C)n(-c3c(C)n(C)n(-c4ccccc4)c3=O)c2C)CS1 returned CSC inhib -10.7, Yeast UUG start -13.3, Rce1 inhib inactive, eIF4H FP inh -0.8, HIV Env fusion -13.3, MT1-MMP act inh -2.9, PABP FP inh -3.7 and MT1-MMP act inh RFP 5.2.
`COc1ccc(CNCCSc2nnnn2C)c(OC)c1OC` gave CSC inhib -12.3, Rce1 inhib inactive, eIF4H FP inh -4.7, HIV Env fusion 5.4, MT1-MMP act inh 1.5, PABP FP inh 5.6 and MT1-MMP act inh RFP 6.1.
Screening CC1(C)CC(CC(=O)O)(c2ccc(F)cc2)CCO1 (configuration not stated) returned CSC inhib 0.6, Yeast UUG start -6.6, Rce1 inhib inactive, eIF4H FP inh 8.6, HIV Env fusion 4.1, MT1-MMP act inh -1.1, PABP FP inh 2.4 and MT1-MMP act inh RFP 2.1.
O=C(CN1C(=O)C2CCCCC2C1=O)N1CCN(c2ncccn2)CC1 (configuration not stated) was read as CSC inhib -5.9, Yeast UUG start -5.6, Rce1 inhib inactive, eIF4H FP inh -8.6, HIV Env fusion -13.5, MT1-MMP act inh 6.6, PABP FP inh -6.8 and MT1-MMP act inh RFP 3.9.
`Brc1cccc(CNc2nc3ccccc3n2CCN2CCCCC2)c1` gave CSC inhib 7.1, Rce1 inhib inactive, eIF4H FP inh -6.1, HIV Env fusion 18.4, MT1-MMP act inh 3.3, PABP FP inh -6.0 and MT1-MMP act inh RFP -2.4.
`O=C(c1cc(-c2ccc(Cl)cc2)n(-c2cc(Cl)ccc2Cl)n1)N1CCOCC1` gave CSC inhib -1.7, Yeast UUG start -4.9, Rce1 inhib inactive, eIF4H FP inh -8.5, MT1-MMP act inh -3.5, PABP FP inh 3.7 and MT1-MMP act inh RFP -6.7.
For COCCNC(=O)C1(C)CCN(C(=O)c2ccc(OC)c(F)c2)C1 (configuration not stated) the results were Yeast UUG start -17.9, HIV Env fusion 33.7, MT1-MMP act inh -2.3 and MT1-MMP act inh RFP 4.1.
CCCNCC1COc2ccccc2O1 (configuration not stated) was read as CSC inhib -2.0, Rce1 inhib inactive, eIF4H FP inh -3.9 and PABP FP inh 4.1.
CC(C(=O)Nc1ccc2c(c1)OCCO2)N(c1ccccc1)S(C)(=O)=O (configuration not stated) was read as CSC inhib 10.2, Yeast UUG start -12.8, Rce1 inhib inactive, eIF4H FP inh 2.8, HIV Env fusion -9.1, MT1-MMP act inh 10.3, PABP FP inh -3.7 and MT1-MMP act inh RFP 5.9.
COc1ccc(N(CC(=O)Nc2nccs2)S(=O)(=O)c2c(C)nn(C)c2C)cc1 was read as CSC inhib 0.7, Yeast UUG start -22.0, eIF4H FP inh 5.2, HIV Env fusion -14.0, MT1-MMP act inh -0.6, PABP FP inh -3.4 and MT1-MMP act inh RFP -0.1.
For Clc1ccc(/C=N/c2c(-c3ccc(Cl)cc3)nc3n2CCS3)cc1 the results were CSC inhib 14.7, Yeast UUG start -6.3, Rce1 inhib inactive, eIF4H FP inh -2.0, MT1-MMP act inh 1.5, PABP FP inh 0.1 and MT1-MMP act inh RFP -1.0.
For CCn1nccc1NC(=O)c1csc([C@@H]2O[C@H](CO)[C@H](O)[C@H](O)[C@H]2O)n1 the results were Yeast UUG start -23.3, HIV Env fusion -4.0, MT1-MMP act inh -7.9 and MT1-MMP act inh RFP -0.2.
Screening CCCC(C(=O)NC1CCCC1)N(CC1CCCO1)C(=O)CNS(=O)(=O)c1ccc(F)cc1 (configuration not stated) returned Yeast UUG start -11.0, Rce1 inhib inactive, eIF4H FP inh 1.8, HIV Env fusion 1.0, MT1-MMP act inh 1.8, PABP FP inh -4.8 and MT1-MMP act inh RFP 3.7.
Cc1ccc(C2=NN(CC(=O)NCc3ccco3)C(=O)CC2)cc1 was read as CSC inhib 9.3, Yeast UUG start -22.2, Rce1 inhib inactive, eIF4H FP inh 6.2, MT1-MMP act inh 0.8, PABP FP inh 19.0 and MT1-MMP act inh RFP 2.4.
COCCN1C(=O)C(=O)/C(=C(/O)c2cccc(OC)c2)C1c1ccco1 (configuration not stated) was read as CSC inhib -10.0, Yeast UUG start -26.2, Rce1 inhib inactive, eIF4H FP inh 27.3, HIV Env fusion 10.9, MT1-MMP act inh -1.1, PABP FP inh -1.5 and MT1-MMP act inh RFP 2.8.
CCCNC(=O)CCc1cc(C(C)(C)C)c(O)c(C(C)(C)C)c1 was read as CSC inhib -9.6, Rce1 inhib inactive, eIF4H FP inh 7.1, HIV Env fusion 5.3, MT1-MMP act inh -2.4, PABP FP inh 5.6 and MT1-MMP act inh RFP -3.6.
`CCCCOC(=O)C1=C(C)NC(=O)NC1c1ccccc1` (configuration not stated) gave CSC inhib 0.7, Yeast UUG start -7.7, Rce1 inhib inactive, eIF4H FP inh -1.4, HIV Env fusion -25.0, MT1-MMP act inh -2.8, PABP FP inh -1.8 and MT1-MMP act inh RFP -2.6.
Screening Cc1nnc(SCCn2c(Br)nc3c2c(=O)n(C)c(=O)n3C)s1 returned CSC inhib -6.8, Yeast UUG start -0.5, Rce1 inhib inactive, eIF4H FP inh -13.1, HIV Env fusion 3.8, MT1-MMP act inh 12.0, PABP FP inh 1.5 and MT1-MMP act inh RFP 1.2.
Cc1ccc(C(=O)OCC(=O)N(CCc2ccccc2)Cc2ccccc2)cc1S(=O)(=O)N1CCOCC1 was read as CSC inhib -5.0, Yeast UUG start -12.0, Rce1 inhib inactive, HIV Env fusion 12.5, MT1-MMP act inh -3.7 and MT1-MMP act inh RFP -2.8.
Cc1cnc(C(=O)OCC(=O)N(C)CC(=O)Nc2ccccc2Cl)cn1 was read as CSC inhib -15.3, Rce1 inhib inactive, MT1-MMP act inh 0.4 and MT1-MMP act inh RFP 3.4.
`CCCc1[nH]nc2c1C(c1ccncc1)C(C#N)=C(N)O2` (configuration not stated) gave CSC inhib 6.9, Yeast UUG start -27.6, Rce1 inhib inactive, eIF4H FP inh -0.9, MT1-MMP act inh -3.7, PABP FP inh 6.6 and MT1-MMP act inh RFP 1.5.
CN(C)c1ccc(C(=O)C(O)c2ccccc2)cc1 (configuration not stated) was read as CSC inhib 4.6, Yeast UUG start -7.4, eIF4H FP inh 5.0, HIV Env fusion -4.3, MT1-MMP act inh 1.6, PABP FP inh 4.6 and MT1-MMP act inh RFP 1.1.
CCOC(=O)N1CCN(C(=O)C2CC(=O)N(c3ccccc3)C2)CC1 (configuration not stated) was read as CSC inhib 8.8, Yeast UUG start -2.3, Rce1 inhib inactive, eIF4H FP inh -5.4, HIV Env fusion -0.9, MT1-MMP act inh 3.3, PABP FP inh 3.3 and MT1-MMP act inh RFP 5.7.
Cc1cc(C)nc(-n2ncc3c2CC(c2ccccc2)CC3=O)n1 (configuration not stated) was read as CSC inhib 4.2, Rce1 inhib inactive, eIF4H FP inh -7.7, HIV Env fusion -8.0, MT1-MMP act inh -34.8, PABP FP inh -11.7 and MT1-MMP act inh RFP 1.7.
For CCCS(=O)(=O)NC(=O)C1(C)CCCN(C(=O)c2ccc(OC)cc2OC)C1 (configuration not stated) the results were Yeast UUG start -14.2, HIV Env fusion 20.4, MT1-MMP act inh -1.5 and MT1-MMP act inh RFP 6.9.
For COc1ccc(OC)c(NC(=O)C23CC4CC(C2)CC(n2cnc(Br)n2)(C4)C3)c1 the results were CSC inhib 40.7, Yeast UUG start -12.3, Rce1 inhib inactive, eIF4H FP inh -8.9, HIV Env fusion -35.3, MT1-MMP act inh 1.8, PABP FP inh 8.5 and MT1-MMP act inh RFP 1.0.
O=C(NCCc1ccc(Cl)cc1)Nc1ccc(Cl)cc1 was read as CSC inhib -1.4, Yeast UUG start -9.9, eIF4H FP inh -6.4, HIV Env fusion -28.7, MT1-MMP act inh 4.5, PABP FP inh 0.7 and MT1-MMP act inh RFP 1.1.
`O=C(Nc1ccc(N2CCN(C(=O)c3cccs3)CC2)c(Cl)c1)c1cccnc1` gave CSC inhib -21.4, Yeast UUG start -12.0, Rce1 inhib inactive, eIF4H FP inh 1.6, HIV Env fusion -20.3, MT1-MMP act inh -2.4, PABP FP inh -3.3 and MT1-MMP act inh RFP -10.1.
Screening Cc1csc(=O)n1CCC(=O)OCC(=O)N(C)c1c(N)n(Cc2ccccc2)c(=O)[nH]c1=O returned Yeast UUG start -1.4, HIV Env fusion -21.8, MT1-MMP act inh -1.3 and MT1-MMP act inh RFP -2.8.

Screens deposited in PubChem BioAssay by several laboratories.

Only part of the results is shown, so the mix of outcomes need not match the whole.
